# Compound activity from PubChem.
# Rango dissoc inh: prevents RanGTP from dissociating the Rango-importin beta complex; Potency, µM (titrated, usually from 46.1 µM), for inactives: at the highest dose activity change, negative = inhibition; 0.071% of 340,000 active; Biochemical FRET Rango-importin beta, RanGTP-induced dissociation; O95149+P62826; active means falling FRET ratio curve, often poorly fitted, with flat reads before Ran was added; inconclusive means other falling curves, or compound fluorescence or quenching; inactive means flat or rising ratio curve;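 further: potency means the concentration at half of the fitted maximal effect; % of control where 0% means no effect; nearly all actives have a fitted effect of over 45% in size; -100% = wells without RanGTP and RCC1; the record marks most hits as doubtful in a second field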
#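 Rango FRET biosensor (snurportin-1 IBB flanked by N-terminal EYFP and C-terminal CFP10) at 0.1 uM, with 0.25 uM importin beta in PBS, 1mM DTT, 0.02% Tween-20, 0.1% BSA. 0.6 uM Ran, 2mM GTP and 0.2 uM RCC1 were then added for 45 min at room temperature. Inhibition read as loss of FRET rise.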
# GLA inh pH 4.5: inhibitors of human alpha-galactosidase A at pH 4.5 | activity change, negative = inhibition, % at 105 µM | 230,000 tested, under 10 active | AID 1467 | P06280 | purified enzyme, 4-MU-alpha-Gal fluorescence, pH 4.5; inconclusive = small, poorly fitted or top-dose-only inhibition, or a rising curve; inactive = flat fitted curve, though single readings scatter; no compound was filed as active;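 further: 0% = full activity with enzyme and -100% = basal without enzyme; dose as in the result columns while the protocol names 77 µM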
# Rango-impB inh: inhibitors of Rango-importin beta complex formation; Rango CFP/YFP FRET sensor + importin beta, 45 min; 0.031% of 340,000 active; Potency, µM (series often up to 92.2 µM), inactives show top-dose inhibition of complex formation; active = rising FRET ratio curve, often small or poorly fitted; inconclusive = mostly compound fluorescence or quenching in the first reads; inactive = flat curves in all reads;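 further: potency means the concentration at half of the fitted maximal effect; 0% = DMSO wells and 100% = buffer wells lacking importin beta; nearly all actives have a fitted effect of over 15% in size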
# Target sequence (Q14974 whole entry, looked up): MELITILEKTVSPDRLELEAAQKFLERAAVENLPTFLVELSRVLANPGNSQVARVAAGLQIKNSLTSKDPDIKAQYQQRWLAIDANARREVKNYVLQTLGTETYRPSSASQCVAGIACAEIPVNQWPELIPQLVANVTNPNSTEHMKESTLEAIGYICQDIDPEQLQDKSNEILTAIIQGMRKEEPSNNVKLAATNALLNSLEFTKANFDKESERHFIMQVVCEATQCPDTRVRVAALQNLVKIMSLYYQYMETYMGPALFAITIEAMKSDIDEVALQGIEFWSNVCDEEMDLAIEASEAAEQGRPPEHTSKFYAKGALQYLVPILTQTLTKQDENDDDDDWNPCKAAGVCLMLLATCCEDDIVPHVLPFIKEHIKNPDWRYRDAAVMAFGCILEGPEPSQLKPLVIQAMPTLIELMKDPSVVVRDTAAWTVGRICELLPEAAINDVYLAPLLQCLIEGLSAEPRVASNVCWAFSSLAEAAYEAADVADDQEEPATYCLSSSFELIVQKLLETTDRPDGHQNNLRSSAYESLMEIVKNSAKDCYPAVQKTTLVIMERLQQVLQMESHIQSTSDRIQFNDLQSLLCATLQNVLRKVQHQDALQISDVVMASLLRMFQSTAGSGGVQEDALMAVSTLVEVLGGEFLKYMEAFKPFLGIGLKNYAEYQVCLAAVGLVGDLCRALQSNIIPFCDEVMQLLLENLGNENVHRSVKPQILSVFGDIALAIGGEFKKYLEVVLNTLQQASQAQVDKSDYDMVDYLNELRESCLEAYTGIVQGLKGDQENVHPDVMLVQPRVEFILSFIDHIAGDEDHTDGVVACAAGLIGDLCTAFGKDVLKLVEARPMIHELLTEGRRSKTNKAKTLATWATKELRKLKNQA
#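 FRET biosensor Rango (snurportin 1 IBB between N-terminal EYFP and C-terminal Cerulean), 50 nM in PBS/1 mM DTT/0.02% Tween-20/0.1% BSA, preincubated 5 min RT with compound; 0.125 microM importin beta added, 45 min RT, CFP/YFP FRET ratio read.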
# miR-21 reporter: miR-21 reporter, rising signal; 340,000 tested, under 10 active; HeLa miR-21 FLuc reporter, luciferase, 48 h; Potency, µM (series often up to 38.3 µM), for the others: at the top dose reporter change, positive = more light; AID 2288; active = well fitted rising curve with a large enough effect; inconclusive = small, poorly fitted or top-dose-only effect; inactive = no such curve, though single readings can be large or run the other way;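 further: % of control where 0% means no effect; miR-21 action dims this reporter so a rising signal means less miR-21 action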
#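 Using DMEM plus 10% FBS, HeLa miR-21-FLuc cells are incubated with test compounds (final up to about 40uM) for 48 hours; firefly luciferase signal is then imaged following reagent-mediated lysis.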
# An asterisk follows results filed as active; ? = inconclusive; · = not tested or not shown; & = joins results of further samples. This is a subset (hit frequency here may not be typical).
SMILES,Rango dissoc inh,GLA inh pH 4.5,Rango-impB inh,miR-21 reporter
CCN(CC(=O)NCc1ccccn1)S(=O)(=O)c1ccc(OC)cc1,2%,·,-3.5%,-3%
CCN(CC)C(=O)CC(c1ccc(OC)cc1)c1c(OC)cc(OC)c2ccc(=O)oc12 (configuration not stated),-2%,-10,-0.7%,-3%
O=S(=O)(N/N=C/c1cccc(OC2CSC2)c1)c1ccccc1,-8%,7,3.2%,-5%
O=C(CSc1nc2ccccc2c(=O)n1CCCO)Nc1ccc2c(c1)OCCO2,-6%,·,-3.1%,·
COc1cc2c(cc1OC)C(C)N(S(=O)(=O)c1cn(C)cn1)CC2 (configuration not stated),-7%,-6,2.6%,-5%
COc1cccc2oc3ccc(C#Cc4ccccn4)cc3c(=O)c12,-7%,·,1.0%,-57%
O=C(NCc1ccc2c(c1)OCO2)c1nc(Cn2cc([N+](=O)[O-])cn2)no1,?,·,1.4%,-1%
Cc1c(NC(=S)NC(=O)c2cccc3ccccc23)cccc1C(=O)O,-8%,·,-0.8%,-16%
O=C(CN(Cc1ccco1)C(=O)CNS(=O)(=O)c1ccccc1)NCc1ccccc1,-5%,7,-0.9%,-2%
O=C(NCCNc1ccc(Cl)cc1[N+](=O)[O-])c1cccnc1,18%,·,2.5%,-2%
Cc1ccccc1-c1nc(CS(=O)(=O)CC(=O)NCCCN2CCOCC2)c(C)o1,17%,·,4.4%,-4%
COc1ccccc1-n1c(SCC(=O)NC(C)(C)C)nc(O)cc1=O,6%,2,-1.6%,0%
Cc1ccc(-n2nc3c(=O)n(CCCC(=O)NCc4cccc(Cl)c4)nc(C)c3c2C)cc1,1%,·,-2.0%,-2%
CCOC(=O)N1CCN(S(=O)(=O)c2cc(Br)cc3c2N(C(C)=O)C(C)C3)CC1 (configuration not stated),9%,-3,-1.7%,2%
CC(C)c1ccc(N(CC(=O)NC2CCCC2)C(=O)CCC(=O)Nc2nccs2)cc1,-30%,·,?,0%
COc1ccccc1N1CCN(S(=O)(=O)c2cc(C)sc2C)CC1,-2%,3,-0.1%,5%
CCOC(=O)c1nnc2cc(-c3ccccc3)nn2c1C,1%,5,3.8%,-44%
COc1cccc(N2CCN(CC(=O)N3CCN(S(=O)(=O)c4ccc(Cl)cc4)CC3)CC2)c1,-7%,·,-3.4%,·
C=CCn1c(SCC2=C(C(=O)OCC)C(C)NC(=O)N2)nnc1C1CCCCC1 (configuration not stated),0%,-3,-1.5%,-5%
COc1nc(N(c2ccccc2)c2ccccc2)nc(-n2ccnc2)n1,3%,-11,9.2%,13%
COC/C=C/C1=CC2=CC(=O)C(C)(OC(=O)c3cnc4ccccc4n3)C(=O)C2=CN1C1CCCCC1 (configuration not stated),·,3,·,4%
COc1ccc(/C=N\NC(=O)c2cccc([N+](=O)[O-])c2)cc1Cn1cc([N+](=O)[O-])cn1,·,-3,·,-1%
O=C1COc2ccc(C(=O)COC(=O)c3sc4ccccc4c3Cl)cc2N1,2%,2,3.1%,-8%
CN(CC(=O)NCc1ccccn1)S(=O)(=O)c1ccc(Cl)cc1,-5%,3,-1.7%,0%

# Exported with each value named: entries from further up.
COc1nc(N(c2ccccc2)c2ccccc2)nc(-n2ccnc2)n1
  Rango dissoc inh = 3%
  GLA inh pH 4.5 = -11
  Rango-impB inh = 9.2%
  miR-21 reporter = 13%

CCOC(=O)N1CCN(S(=O)(=O)c2cc(Br)cc3c2N(C(C)=O)C(C)C3)CC1 (configuration not stated)
  Rango dissoc inh = 9%
  GLA inh pH 4.5 = -3
  Rango-impB inh = -1.7%
  miR-21 reporter = 2%

# Next section:
SMILES,Rango dissoc inh,GLA inh pH 4.5,Rango-impB inh,miR-21 reporter
CCCN(Cc1ccc(C)cc1)C(=O)c1ccc(CNS(=O)(=O)c2ccc(C(C)=O)cc2)cc1,0%,·,0.3%,·
O=C(NCc1cccnc1)c1cccc2c1C(=O)N(C1CCCCC1)C2,1%,-5,0.4%,-16%
Cc1cc2cc(CN(CCCO)S(=O)(=O)c3cccc4nsnc34)c(=O)[nH]c2cc1C,-7%,5,3.1%,0%
Cc1cc(N2C(=O)C3CC=CCC3C2=O)no1 (configuration not stated),-3%,0,2.2%,?
CC(C)N1CCC(N2CCN(C/C=C/c3ccc(F)cc3)CC2CCO)CC1 (configuration not stated),-4%,5,-1.6%,-4%
CC1=C(C)C(=O)C(CCCCC#CCCCC#CCO)=C(C)C1=O,1%,1&-9,0.0%,4%
COCCNC(=O)c1cc2cc(Cl)cc(Cl)c2oc1=O,-2%,10,2.0%,-1%
COc1cccc(C=Nc2ccc(N3CCOCC3)cc2)c1O,0%,·,3.0%,-10%
O=S(=O)(NC1CCN(Cc2ccccc2)CC1)c1cccc(S(=O)(=O)N2CCOCC2)c1,2%,2,?,-2%
Cc1ccc2oc(/N=C(\N)NC(=O)C(C)(C)C)nc2c1,-8%,2,0.0%,16%
COc1ccc(CN2C(=O)c3cccnc3C2=O)cc1S(=O)(=O)N1CCCCC1C (configuration not stated),12%,·,1.3%,2%
COC(=O)c1ccc(CNC(=O)COC(=O)c2ccc(N(C)C)cc2)cc1,1%,0,-1.9%,1%
O=C(C1CCN(c2ncnc3c2nc2n3CCCCC2)CC1)N1CCN(c2cccc(Cl)c2)CC1,22%,·,0.8%,?
Cc1cccc(N2C(=O)CC(N3CCN(Cc4ccc(Cl)cc4)CC3)C2=O)c1 (configuration not stated),13%,7,0.9%,-6%
CC(NC(=O)COC(=O)C12CC3CC(CC(Br)(C3)C1)C2)c1ccccc1 (configuration not stated),1%,·,-0.8%,·
COc1ccc(CC(=O)OCC(=O)NC(=O)Nc2ccccc2F)cc1,4%,·,?,·
Cc1ccc(-c2cn3cccc(C)c3n2)cc1,-6%,-3,0.5%,-21%
CC1CCN(S(=O)(=O)c2ccc(S(=O)(=O)N3CCCC3)cc2)CC1,4%,·,-1.0%,-1%
CCc1c(C(C)S(=O)(=O)c2ccccc2)[nH]c(=O)n1CC (configuration not stated),10%,-5,-0.1%,0%
Cc1ccccc1NC(=S)N(CCN(C)C)C(C)c1ccccn1 (configuration not stated),5%,3,-1.3%,-8%
Cc1ccccc1OCCOC(=O)c1ccc(S(=O)(=O)N2CCCC2)cc1,4%,·,1.8%,·
O=P(c1ccc2c(c1)OCCO2)(N1CCOCC1)N1CCOCC1,21%,4,-1.9%,-7%
COc1ccc(CC(=S)N2CCOCC2)cc1OC,13%,0,2.5%,-4%
COc1ccc(O)c(-c2cc(-c3ccc(F)cc3)n[nH]2)c1,-12%,·,-3.3%,-27%

# A second format for some results above.
mol | Rango dissoc inh | GLA inh pH 4.5 | Rango-impB inh | miR-21 reporter
COc1ccc(CC(=O)OCC(=O)NC(=O)Nc2ccccc2F)cc1 | 4% | · | ? | ·
CC(NC(=O)COC(=O)C12CC3CC(CC(Br)(C3)C1)C2)c1ccccc1 (configuration not stated) | 1% | · | -0.8% | ·

# An excerpt taken from the entries so far, for reference:
SMILES,Rango dissoc inh,GLA inh pH 4.5,Rango-impB inh,miR-21 reporter
Cc1ccccc1OCCOC(=O)c1ccc(S(=O)(=O)N2CCCC2)cc1,4%,·,1.8%,·
O=P(c1ccc2c(c1)OCCO2)(N1CCOCC1)N1CCOCC1,21%,4,-1.9%,-7%
COc1ccc(CC(=S)N2CCOCC2)cc1OC,13%,0,2.5%,-4%
COc1ccc(O)c(-c2cc(-c3ccc(F)cc3)n[nH]2)c1,-12%,·,-3.3%,-27%

# Continuation:
SMILES,Rango dissoc inh,GLA inh pH 4.5,Rango-impB inh,miR-21 reporter
CCN(CC)S(=O)(=O)c1cccc(C(=O)N[C@H](C(=O)NNC(=O)c2ccccc2)C(C)C)c1,3%,4,-0.1%,0%
CCCCCOC(=O)C1=C(C)NC(=O)NC1c1ccccc1OCC (configuration not stated),0%,-10,-2.0%,2%
CCc1cc(=O)oc2c3c(cc(OCC(=O)Nc4cccnc4)c12)OC(C)(C)CC3,-5%,·,0.0%,1%
Cc1cccc(C(=O)Nc2sc3c(c2C#N)CCCCC3)c1,0%,-3,0.0%,-60%
COC(=O)c1sc(S(=O)(=O)NCC(=O)O)c(C(=O)OC)c1C,20%,0,-1.7%,4%
O=C(COC(=O)C1CC2CCCC(C1)C2=O)Nc1nc(-c2ccc(F)c(F)c2)cs1 (configuration not stated),-11%,·,1.6%,·
O=C(NCCCNC(=O)c1ccc(Cl)cc1Cl)c1ccccn1,-2%,·,-1.2%,-2%
COc1ccc(-c2cc3nc(-c4ccccc4)cc(N4CCC5(CC4)OCCO5)n3n2)cc1,-18%,?,?,0%
Cc1oc(-c2ccccc2F)nc1CS(=O)(=O)CC(=O)NC1CCCC(C)C1C (configuration not stated),-3%,·,6.3%,-5%
FC(F)(F)c1ccc(-c2n[nH]c(=S)o2)nc1,1%,-7,0.9%,-4%
CC1CCCC/C1=N\NC(=S)Nc1cccnc1 (configuration not stated),9%,9,-0.9%,2%
CCOC(=O)C1CCN(C(=O)CSc2ccccc2)CC1,18%,-2,-0.1%,-15%
CC(C)NC(=O)NC(=O)COC(=O)Cc1ccsc1,14%,5,-2.8%,2%
CSc1ccc(C(=O)N2CCc3ccc(NC(=O)c4ccccn4)cc3C2)cc1,-10%,·,-2.4%,14%
CC(C)n1cc(CN2CCC(n3nccc3NC(=O)CCCc3ccccc3)CC2)cn1,-10%,·,-2.2%,0%
O=C(c1ccncc1)N1CCN(C(=O)c2cccc3ccccc23)CC1,-12%,-3,-0.4%,0%
C=CCn1c(SCC(=O)Nc2ncc(Cc3cc(Cl)ccc3Cl)s2)nnc1-c1ccncc1,3%,2,-1.2%,-2%
Cc1cccc(C)c1NC(=O)COC(=O)c1ccccc1O,-15%,·,0.7%,4%
COc1ccccc1S(=O)(=O)Nc1cccc(S(=O)(=O)N2CCCC2)c1,18%,·,2.6%,·
CCc1cccc(C)c1NC(=O)COC(=O)CC1CCCC1,2%,·,-0.9%,·
Cc1ccc(SCCOCCN2CCc3ccccc3C2)cc1,2%,-7,3.2%,5%
C=C(C)Cn1c(Sc2nc3ccccc3[nH]2)nc2c1c(=O)[nH]c(=O)n2C,0%,9,-2.9%,-18%
CC(C)(C)NC(=O)C(c1ccccc1)N(C(=O)CNC(=O)c1cccs1)c1cccnc1 (configuration not stated),5%,·,2.1%,0%
CCC(=O)Nc1ccc(NC(=O)CN2CCCC(C)C2)c(Cl)c1 (configuration not stated),4%,-1,3.0%,-30%
Cc1cccc(OCc2occc2C(=O)Nc2cccc(-n3cnnn3)c2)c1,-10%,·,0.3%,3%
Cc1sc2nc(CC(=O)N3CCCC3)[nH]c(=O)c2c1C,1%,8,-0.3%,-13%
O=C(Cc1ccc(NC(=O)C2CCCN(C(=O)C3CCCCC3)C2)cc1)Nc1cccc(C(=O)N2CCCC2)c1 (configuration not stated),11%,·,-2.7%,·
CCc1cccc2c(C(=O)CCl)c[nH]c12,0%,5,0.1%,10%
Nc1c(Cl)cc(C2=NCCn3c2c2ccc(C(F)(F)F)cc2[n+]3[O-])cc1Cl,9%,·,7.0%,·
CCc1ccc(C(C(=O)NC(C)(C)CC)N(Cc2ccco2)C(=O)Cn2nnc3ccccc32)cc1 (configuration not stated),6%,-6,0.1%,0%
CC1=NN(C(=O)Cn2nc([N+](=O)[O-])c(Br)c2C)C(O)(C(F)(F)F)C1 (configuration not stated),-3%,7,1.5%,-2%
CCC(C)c1ccccc1NC(=O)CN(CC)CC(=O)Nc1ccc2c(c1)OCCO2 (configuration not stated),-2%,·,2.4%,·
CCC(=O)N1CCc2cc(Br)cc(S(=O)(=O)N(C)c3ccc(OC)cc3OC)c21,0%,-22,0.2%,28%
O=c1[nH]c(CN(CCO)CCO)nc2c1C1(CCCCC1)Cc1ccccc1-2,18%,1,0.2%,-5%
CC(C)(C)CN1C(=O)C(=O)NC[C@@H]1CCCCN,-16%,·,0.1%,·
COc1cccc2c(=O)c3ccccc3oc12,-10%,4&1,0.0%,-35%&-27%
